Compound activity (PubChem)
GIV-Gai inh: inhibitors of GIV GBA-motif binding to rat Galpha-i3; P08753; Galpha-i3/FITC-GIV peptide fluorescence polarization, 90 min; stronger effect = lower value; scaled: aluminum fluoride 0%, vehicle 100%; percent of control (FP), % (concentration not given with the values); 0.42% of 210,000 active; AID 1224905;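 active means replicate mean at 85% of control or lower, very high polarization wells dropped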;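 further: wells of about 15 µL received 100 nL stock; the first replicate is given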
Target sequence (P08753 whole entry, looked up): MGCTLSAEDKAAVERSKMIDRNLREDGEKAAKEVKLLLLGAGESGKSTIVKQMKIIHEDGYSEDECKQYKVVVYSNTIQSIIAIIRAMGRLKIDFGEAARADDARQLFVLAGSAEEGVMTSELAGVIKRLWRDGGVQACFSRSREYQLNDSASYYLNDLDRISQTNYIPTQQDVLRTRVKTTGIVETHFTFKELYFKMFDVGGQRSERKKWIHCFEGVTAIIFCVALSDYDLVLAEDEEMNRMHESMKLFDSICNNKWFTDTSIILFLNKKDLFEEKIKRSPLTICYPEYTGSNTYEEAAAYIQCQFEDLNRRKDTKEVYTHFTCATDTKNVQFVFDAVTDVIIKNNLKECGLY
Sa growth inh: blocks Staphylococcus aureus growth | AID 720641 | S. aureus RN4220 growth, OD600, 20 h, 42 °C; stronger effect = lower value | 0.53% of 170,000 active | relative growth, % (concentration not given with the values);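 active means growth at 42 °C up to 50% and 20 or more points under that at 30 °C, or under 10% at both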;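 further: 300 nL library stock went into each well; scaled to the means of positive and negative controls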
HCMV NEC inh: disrupts HCMV UL50-UL53 complex binding; HTRF UL50-UL53 interaction, normalized percent inhibition; inhibition, % (concentration not given with the values); 0.15% of 190,000 active; AID 1918969;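 active means both replicates at 50% or more, plus weaker picks with an unusually low signal ratio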;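 further: stock transfer was 100 nL into about 20 µL; 0% = negative control wells and 100% = wells with untagged competitor protein; inactives centre near -12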
Sa growth inh second temp: also measured in Sa growth inh; calls as there; relative growth, %; measured here: growth at 30 °C;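 optical density after 20 h as mean of two plates; 100% = untreated growth and lower means inhibition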
Starred values were filed as active, the others as inactive; · = not tested or not shown; & = joins results of further samples.

#	SMILES	GIV-Gai inh	Sa growth inh	Sa growth inh second temp	HCMV NEC inh
1	NC(=O)c1ccc(OC2CSC2)cc1	·	107.8	94.1	9.6
2	O=C(O)c1ccccc1C(=O)NCc1csc2ccccc12	98.8	108.4	118.1	4.4
3	COc1ccccc1NC(=O)CSCc1cnc(C)c(O)c1CO	103.0	104.9	89.9	·
4	Cc1ccc2c(n1)nn1c(C)cc(C)nc21	103.3	·	·	-18.8
5	O=C(O)c1ccc(N=Cc2cccnc2)cc1	·	118.9	85.3	-5.8
6	Cc1ccc(S(=O)(=O)CCSC2=CC(=O)CC(C)(C)S2)cc1	108.2	95.3	81.1	-37.5
7	CN1CCN(NC(=O)CSc2ccc(Cl)cc2Cl)CC1	·	99.8	84.7	-26.3
8	CC(C)N(C(=O)Cn1c(SCC(=O)N2CCOCC2)nc2ccccc21)C(C)C	99.9	98.2	92.2	4.3
9	CCOC(=O)c1c(C=O)oc2c(C)cc(OC(=O)c3ccccc3Br)c(Br)c12	104.9	·	·	-7.9
10	N#CC1=C(N)OC2=C(C(=O)CCC2)C12C(=O)N(CC(N)=O)c1ccccc12 (configuration not stated)	99.9	105.7	75.1	·
11	Cn1nc(-c2ccc(Cl)cc2)c2cc(C(=O)NCC3CCCO3)sc21 (configuration not stated)	115.5	100.5	42.1	-0.5
12	COC(=O)CCc1ccc(OCC(O)CNC(C)C)cc1 (configuration not stated)	107.4	98.7&93.3	100.2&90.9	-31.9&-4.6&-67.6
13	COC(=O)C1CCN(C(=O)c2cc(S(N)(=O)=O)ccc2OC)CC1	·	83.1	89.0	-7.4
14	Cc1nc2n(c(=O)c1CCN1CCC(c3noc4cc(F)ccc34)CC1)CCCC2	101.8	98.5&94.6	94.1&82.7	-29.6&-99.9&-23.7
15	N#CCCn1cc(C(=O)COc2ccccc2C#N)c2ccccc21	·	88.9	95.6	-34.0
16	Cc1nsc(N)c1C(=O)O	·	110.8	99.3	10.6
17	Cc1ccc(C(C)C)c(OCCSc2nc3ccccc3n2CC(O)CO)c1 (configuration not stated)	103.8	80.6	82.9	-11.2
18	COc1ccc2nc(NC(=O)C3CCC3)sc2c1	107.2	114.6	98.5	-5.0
19	COc1ccc(C2C3=C(CC(C)(C)CC3=O)Nc3onc(C)c32)cc1 (configuration not stated)	103.2	·	·	-25.6
20	O=C1/C(=C/c2ccccc2)N=C2CCCCCN12	·	122.4	95.0	-69.5
21	COc1ccc(CNC(=O)CN2CCN(Cc3ccccc3)C(=O)C2=O)cc1	103.2	·	·	-19.8
22	CN(C)c1ccc(CNC(=O)c2ccc(Cn3c(=O)c4cccn4c4cccnc43)cc2)cc1	108.9	101.0	86.9	·
23	CCc1ccc(N2C(=O)C3C(C(=O)OC)=NN(C(C)=O)C3C2=O)cc1 (configuration not stated)	102.0	112.7	80.9	-6.1
24	CN1N=C(C(F)(F)F)CC1=O	105.5	90.0	88.3	-26.3

Another view of part of the listing above:
(14) Cc1nc2n(c(=O)c1CCN1CCC(c3noc4cc(F)ccc34)CC1)CCCC2
(15) N#CCCn1cc(C(=O)COc2ccccc2C#N)c2ccccc21
(16) Cc1nsc(N)c1C(=O)O
(17) Cc1ccc(C(C)C)c(OCCSc2nc3ccccc3n2CC(O)CO)c1 (configuration not stated)
(18) COc1ccc2nc(NC(=O)C3CCC3)sc2c1
compound no.	14	15	16	17	18
GIV-Gai inh	101.8	·	·	103.8	107.2
Sa growth inh	98.5&94.6	88.9	110.8	80.6	114.6
Sa growth inh second temp	94.1&82.7	95.6	99.3	82.9	98.5
HCMV NEC inh	-29.6&-99.9&-23.7	-34.0	10.6	-11.2	-5.0

The listing continues.
#	SMILES	GIV-Gai inh	Sa growth inh	Sa growth inh second temp	HCMV NEC inh
25	Cc1nc(N2CCCCC2C)c2c(C)c(C(=O)O)sc2n1 (configuration not stated)	109.5	·	·	-16.8
26	O=C(/C=C\Nc1ccccn1)c1ccc2c(c1)OCO2	144.2	100.8	86.4	-21.3
27	CC1CCCN(Cc2nc3c(c(=O)n(C)c(=O)n3C)n2Cc2ccc(Cl)cc2Cl)C1 (configuration not stated)	106.2	102.8	90.4	-28.1
28	O=C(CSc1nc2cc(Cl)ccc2s1)NC1CCCC1	·	80.4	87.4	-9.0
29	CC(C)c1ccc(S(=O)(=O)N2CCC(n3c(C(F)(F)F)nc4cccnc43)CC2)cc1	105.6	76.3	91.7	·
30	O=C(CSc1n[nH]c(=O)[nH]c1=O)N/N=C/c1ccccn1	109.7	94.6	86.3	-26.6
31	Brc1ccc(C2=CSc3ccccc3N2)cc1	105.5	70.4	80.7	·
32	CCc1ccc2oc(C(=O)Nc3nc(-c4ccccc4)ns3)c(C)c2c1	96.9	91.4	82.4	-21.6
33	CC(=O)N(CCC(Cc1ccccc1)c1ccc2c(c1)OCO2)Cc1ccc2c(c1)OCO2 (configuration not stated)	·	75.3	62.8	-26.4
34	Cc1ccc(NC(=O)N2CCN(c3cc(=O)n4nc(-c5ccccc5C)sc4n3)CC2)cc1	104.6	·	·	-33.2
35	CCOc1cccc2cc(C(C)NCc3ccc(C)o3)oc12 (configuration not stated)	·	96.5	91.7	-9.1
36	COc1ccc(NC(=O)C(=O)NCCc2sc(-c3ccc(Cl)cc3)nc2C)cc1	101.2	89.6	88.4	·

Two records drawn at random from the list so far, as already listed:
#	SMILES	GIV-Gai inh	Sa growth inh	Sa growth inh second temp	HCMV NEC inh
34	Cc1ccc(NC(=O)N2CCN(c3cc(=O)n4nc(-c5ccccc5C)sc4n3)CC2)cc1	104.6	·	·	-33.2
33	CC(=O)N(CCC(Cc1ccccc1)c1ccc2c(c1)OCO2)Cc1ccc2c(c1)OCO2 (configuration not stated)	·	75.3	62.8	-26.4

Next part
#	SMILES	GIV-Gai inh	Sa growth inh	Sa growth inh second temp	HCMV NEC inh
37	Cc1cccc(NC(=O)CN(C)S(=O)(=O)c2cccs2)c1C	112.1	80.9	90.8	·
38	Cn1c(=O)[nH]c2cc(-c3noc(-c4ccc(Br)cc4)n3)ccc21	101.4&93.0	94.4	78.7	·
39	O=C(Nc1ccccc1)N(Cc1cccc(Cl)c1)c1ccccn1	100.1	97.9	84.5	-5.9
40	O=C(NCc1ccc2c(c1)OCO2)NCC1CCCC(CNC(=O)NCc2ccc3c(c2)OCO3)C1 (configuration not stated)	·	102.5	96.2	-1.6
41	N#C/C=C(\c1ccc(F)cc1)N1CCCCC1	·	81.1	84.1	-11.0
42	O=C(COc1ccccc1)Nc1ncn[nH]1	101.0	95.0	82.0	-6.0
43	CC(=O)Nc1c(-c2ccccc2)c(C)nn1-c1ccc(C(=O)NCc2nc3ccc(C)cc3[nH]2)cc1	107.8	·	·	-19.7
44	CCCCn1c(SCC(=O)NC(C)(C#N)C(C)C)nnc1C(CC)N(C)C (configuration not stated)	·	82.7	91.3	-1.5
45	O=c1[nH]c(=O)n(-c2ccc(Cl)cc2)c(O)c1C=Nc1ccc(N2CCOCC2)cc1	133.9	125.4	55.5	-23.2
46	CCOc1c(NCCC2=CCCCC2)c(=O)c1=O	104.4	·	·	-8.3
47	CCCN(CCO)CC1CCCCC1	97.3	97.3	91.8	-2.2
48	CC(C)CCn1c(=O)c2cccnc2n(Cc2cccc(Cl)c2)c1=O	96.9	103.3	84.5	-14.7
49	CCOC(=O)CN1C(=O)C2(OCCO2)c2cc(Br)ccc21	103.4	93.8	87.7	39.6
50	Cc1ccccc1Nc1nc(N)nc(COn2nnc3ccc(S(C)(=O)=O)cc32)n1	·	77.5	87.7	-20.9
51	Cc1cccc(NC(=O)CN(CC2CCCO2)C(=O)c2cc(-c3ccco3)nc3ccccc23)c1C (configuration not stated)	·	103.9	80.1	-29.2
52	CC(=O)N(C)c1cccc(-c2ccc3nnc(C)n3n2)c1	101.3	101.5	100.7	-32.2
53	CCC(Oc1ccccc1)C(=O)NCc1ccc2c(c1)OCO2 (configuration not stated)	99.1	118.2	82.2	-20.2
54	CCOC(=O)C1CCCN(S(=O)(=O)c2ccc(C)cc2)C1 (configuration not stated)	99.2	119.4	95.9	-11.1
55	CC(=O)Nc1ccc(NC(=O)CCCC(=O)O)cc1	96.7	87.2	86.0	-16.2
56	Cc1ccc(-n2ncc3c(Nc4ccccc4C)ncnc32)cc1	106.5	109.3	97.9	·
57	CC(C)c1nnc(NC(=O)/C=C/c2ccc3c(c2)OCO3)s1	99.5	99.3	95.6	·
58	Cc1ccc(N(Cc2cccs2)C(=O)Nc2cccc(Cl)c2)cc1	104.3	114.7	89.3	-15.7
59	O=c1c2ccccc2nc(-c2cccs2)n1NCc1ccccc1F	103.2	95.3	75.9	·
60	COc1ccc(NC(=O)NC(C)c2c(-n3cccc3)sc(C)c2C)cc1OC (configuration not stated)	103.2	107.2	91.6	-23.2
61	C=CCc1c(C)nc(SCC(C)C)[nH]c1=O	105.9	115.7	103.7	11.5
62	CC1(C)C(=O)C2(CCCCC2)C(=O)OC1c1ccc(Br)o1 (configuration not stated)	99.2	94.5	80.6	-22.3
63	CC(C)CCNc1nc(Nc2ccccc2)c2cnn(C)c2n1	105.4	116.2	73.6	·
64	COC(=O)CSc1ccc2nnc(CCNS(=O)(=O)c3ccc(C)cc3)n2n1	105.4	115.3	89.6	·
65	COc1cccc(-n2c(-c3ccccc3F)nc3c(cnn3-c3ccc(C)cc3)c2=O)c1	104.8	92.8	86.2	-7.8
66	COc1ccc(-c2nn(C)c3sc(C(=O)Nc4cccc(F)c4)cc23)cc1OC	104.3	112.2	91.7	·
67	Cc1cc(C)c(C#N)c(SCCSc2nc(C)cc(C)c2C#N)n1	100.1	·	·	-5.6
68	Cc1cc(C)cc(OCC(=O)NC2CCCCC2C)c1 (configuration not stated)	·	89.6	94.9	-4.8
69	O=C(O)CCCn1c(=O)c2cc3c(=O)n(CCCC(=O)O)c(=O)c3cc2c1=O	105.4	105.3	104.6	-50.8
70	CCOc1cc(C(=O)NCCc2csc3nc(-c4ccc(C)cc4)nn23)cc(OCC)c1OCC	110.9	129.6	96.2	·
71	O=C1CS(=O)(=O)C2(C(=O)N(Cc3ccccc3)c3ccccc32)N1c1ccccc1 (configuration not stated)	112.8	112.2	100.4	·
72	NC(=O)c1ccc2c(c1)S(=O)(=O)c1ccccc1C2=O	·	104.0	84.6	-103.8

2 compounds from above, limited to HCMV NEC inh, GIV-Gai inh and Sa growth inh second temp.
cpd	SMILES	HCMV NEC inh	GIV-Gai inh	Sa growth inh second temp
61	C=CCc1c(C)nc(SCC(C)C)[nH]c1=O	11.5	105.9	103.7
62	CC1(C)C(=O)C2(CCCCC2)C(=O)OC1c1ccc(Br)o1 (configuration not stated)	-22.3	99.2	80.6

Carrying on:
#	SMILES	GIV-Gai inh	Sa growth inh	Sa growth inh second temp	HCMV NEC inh
73	Cc1ccc(Nc2ncnc3c2cnn3-c2ccccc2)c(C)c1	109.8	100.2	90.5	·
74	CCCCN1C=C(C(=O)OC)C(c2cccc(OC)c2OC)C(C(=O)OC)=C1	103.1	110.6	102.2	-7.8
75	CCN1CN=C(Nc2nc(C)c3cc(OC)ccc3n2)NC1	101.4	·	·	-38.4
76	CN(C)S(=O)(=O)c1ccc2c(c1)C(CC(=O)O)OC2=O (configuration not stated)	96.2	90.5	107.0	8.6
77	O=C1OC(c2ccc(F)cc2)c2ccccc21 (configuration not stated)	106.8	98.8	88.7	-18.9
78	c1ccc(-c2noc(-c3ccc(N4CCC(N5CCCCC5)CC4)nn3)n2)cc1	95.7	·	·	-37.5
79	Cc1cccc(CSc2nc3c(-c4ccccc4)c[nH]c3c(=O)[nH]2)c1	105.0	·	·	-33.1
80	Cn1c(C(=O)N2CCC(C(=O)NC3CCCc4ccccc43)CC2)cc2sccc21 (configuration not stated)	100.7	85.0	76.8	-19.7
81	O=C(Cn1cnnn1)NC1CCCc2ccccc21 (configuration not stated)	·	81.8	96.3	-19.0
82	CC(C)(CC(=O)O)CC(=O)Nc1cc(Cl)ccc1Cl	101.7	107.2	101.2	3.6
83	O=C(Nc1ncn[nH]1)Nc1cccc2ccccc12	·	105.5	83.4	1.2
84	CCN1C/C(=C\c2ccccc2)C(=O)/C(=C/c2ccccc2)C1	109.9	93.3	60.1	·
85	Cc1ccccc1N1CC(C(=O)Nc2ccc(Br)cc2)CC1=O (configuration not stated)	107.4	111.0	103.3	-7.6
86	CCn1c(O)c(N=NS(=O)(=O)c2ccc(C)cc2)c2cc(Cl)ccc21	107.3	0.8*	8.2*	-22.9
87	CCOC(=O)C1CCN(C(=O)c2sc(-c3ccccc3)nc2C)CC1	104.5	88.8	84.8	-20.9
88	CN=c1scc(-c2ccc(OC(F)F)cc2)n1/N=C/c1ccc(O)cc1	·	50.9	50.8	-14.1
89	N/C(Cc1nc2ccccc2s1)=N\O	126.8	82.7	72.5	51.8*
